B2AR ag = agonists of human beta-2 adrenergic receptor inducing internalization. 0.43% of 340,000 active. AID 504454. response, % (test concentration not listed). Am2.2-beta2AR cells, FAP receptor internalization, flow cytometry; reference of the scale not given here. P07550;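 active = response above a set limit, near 3 SD of response in nonfluorescent compounds, cut at about 42% in these data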;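 also: stock transfer was 100 nL into about 11 µL; a reference agonist was the positive control; negative values mostly stem from fluorescent compounds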
Calb FLC = C. albicans growth modulation with fluconazole | C. albicans CaCi-2 (fluconazole-resistant clinical isolate) + fluconazole, Alamar Blue growth, 48 h | growth inhibition, % (test concentration not listed) | 0.57% of 300,000 active;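 active = most replicates above 75%; inconclusive = exactly half above 75%; inactive = most below 75%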;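 also: all wells also contain fluconazole at 8 µg/ml as a sub-toxic cotreatment; 0% = median of DMSO wells and 100% = median of geldanamycin control wells; wells of about 8 µL received 7.5 nL stock; the first replicate is given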
A1 inh = inhibitors of the anti-apoptotic protein A1, read as caspase activation; MEF A1-2A-BIM cells, Caspase-Glo 3/7 luminescence, 3 h; percent of clofoctol response, vehicle zero; caspase activation, % (no concentration beside the values); 0.066% of 330,000 active;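 active = over half of replicate activation scores above 10%, or exactly half above 10 with the replicate mean above 10; inconclusive = replicate mean below 10 yet half the replicates above 10; inactive = over half of replicates below 10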;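 also: wells of about 30 µL received 50 nL stock; many hits fall short of the cut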
RanGTP-Impb inh = inhibitors of RanGTP-importin-beta interaction, primary screen, biochemical, FRET, CFP-Ran, YFP-importin-beta, homogeneous; AID 2216; cell-free CFP-Ran/YFP-importin-beta FRET ratio; 1.1% of 300,000 active; inhibition, % (test concentration not listed);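 active = most replicates above 15%; inconclusive = exactly half above 15%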;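 also: 0% = DMSO wells and 100% = Ran loaded with GDP instead of GTP; wells of about 40 µL received 100 nL stock; the first replicate is given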
LANA-H2B inh = blocks KSHV LANA binding to histone H2A/H2B. Q9QR71. cell-free LANA-H2A/H2B peptide, fluorescence polarization. inhibition, % (no concentration beside the values). 0.6% of 320,000 active; in the data active = inhibition mostly above about 10%, no sharp cut-off; inactive = mostly below about 6.7%;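 also: stock transfer was 7.5 nL into about 10 µL; 0% = median of vehicle wells and 100% = median of positive control wells; one replicate is shown; the record names a cut of 25% in any replicate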
Target sequence (Q9QR71 whole entry, looked up): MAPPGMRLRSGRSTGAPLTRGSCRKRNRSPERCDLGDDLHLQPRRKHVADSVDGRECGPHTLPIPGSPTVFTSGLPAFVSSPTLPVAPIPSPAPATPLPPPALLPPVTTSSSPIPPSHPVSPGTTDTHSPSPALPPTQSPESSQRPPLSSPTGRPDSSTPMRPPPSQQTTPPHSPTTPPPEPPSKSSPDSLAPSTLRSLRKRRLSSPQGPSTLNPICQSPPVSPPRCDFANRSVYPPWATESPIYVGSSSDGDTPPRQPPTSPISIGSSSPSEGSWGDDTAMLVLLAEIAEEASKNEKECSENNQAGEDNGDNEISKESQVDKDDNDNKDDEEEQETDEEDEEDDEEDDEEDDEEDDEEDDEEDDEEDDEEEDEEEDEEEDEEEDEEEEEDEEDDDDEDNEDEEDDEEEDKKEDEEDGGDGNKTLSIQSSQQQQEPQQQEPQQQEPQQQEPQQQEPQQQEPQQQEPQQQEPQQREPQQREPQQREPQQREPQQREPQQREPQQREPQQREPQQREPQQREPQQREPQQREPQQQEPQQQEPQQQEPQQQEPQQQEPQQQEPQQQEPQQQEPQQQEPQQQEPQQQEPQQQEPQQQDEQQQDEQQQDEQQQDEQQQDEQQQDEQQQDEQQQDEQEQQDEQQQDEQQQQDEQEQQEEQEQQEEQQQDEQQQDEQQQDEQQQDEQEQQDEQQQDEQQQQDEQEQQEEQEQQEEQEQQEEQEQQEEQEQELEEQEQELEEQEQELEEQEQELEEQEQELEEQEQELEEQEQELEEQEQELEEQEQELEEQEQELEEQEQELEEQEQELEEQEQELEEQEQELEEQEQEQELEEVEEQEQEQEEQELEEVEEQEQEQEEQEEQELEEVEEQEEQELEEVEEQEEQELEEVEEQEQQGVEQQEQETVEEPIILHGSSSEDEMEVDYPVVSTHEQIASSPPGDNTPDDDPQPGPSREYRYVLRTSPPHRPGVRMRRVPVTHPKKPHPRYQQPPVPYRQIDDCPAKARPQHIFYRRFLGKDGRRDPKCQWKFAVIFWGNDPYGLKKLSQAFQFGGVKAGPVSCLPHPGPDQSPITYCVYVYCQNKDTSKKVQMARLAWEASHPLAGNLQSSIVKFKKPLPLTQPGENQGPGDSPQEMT
UCH37 inh = human UCH37 deubiquitinating enzyme inhibition | purified proteasome/UCH37, Ub-AMC cleavage fluorescence | inhibition, % (test concentration not listed) | 0.33% of 330,000 active;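 active = mean of two replicates above 20%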;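 also: 0% = compound-free wells with enzyme and 100% = wells lacking proteasome; stock transfer was 100 nL into about 20 µL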
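Assay system: Proteasome-bound UCH37. Buffer or medium: pH 7.4 Tris-HCl (50 mM) with ovalbumin, ATP-MgCl2, DTT. Incubation: 30 min preincubation with enzyme, 25 min cleavage at room temperature. Measured by: fluorescence, ex 355 nm, em 460 nm. Read-out basis: percent inhibition. Control set: wells without proteasome as full block, compound-free enzyme plus substrate as uninhibited.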
T cruzi repl = T. cruzi replication inhibition | T. cruzi beta-gal in NIH3T3, luminescence, 90 h | inhibition, % (no concentration beside the values) | 1.4% of 300,000 active | AID 1885;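 active = mean inhibition across valid replicates above about 55%, limit read from the data; inconclusive = mean below that limit but half or more replicates reach it; inactive = mean below it, under half of replicates reach it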;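 also: signal also drops with host cell toxicity which is not excluded here; 0% = plate median of DMSO wells and 100% = zero luminescence signal; higher percent means less beta-gal luminescence so fewer parasites; stock transfer was 50 nL into about 50 µL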
Beta cell apopt = beta cell apoptosis inhibition. INS-1E cytokine-induced death, ATP luminescence, 48 h; percent of positive-control rescue, neutral wells zero. protection from apoptosis, % (test concentration not listed). 0.8% of 300,000 active. AID 435005;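 active = all replicates at 75% or more, or half of them and the mean; inconclusive = half reach 75% but not the mean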;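 also: 0% = cytokine-treated negative control wells and 100% = positive control rescue; higher means more ATP so stronger rescue from cytokine killing; wells of about 40 µL received 100 nL stock; the first replicate is given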
* hit, by the source's call; ? = inconclusive; / = no result given; + = active, no number.

1) N#CC1=C(SCC(=O)NC2CCCCC2)NC(=O)CC1c1ccco1 (stereo not given)
2) COc1cccc(C(=O)C2CCCN(C(=O)c3ccc(C#CC(C)(C)O)cc3)C2)c1 (stereo not given)
3) COC1c2ccccc2C(=O)N1CCc1ccc(Cl)cc1 (stereo not given)
4) O=C(COc1ccc(Cl)cc1Cl)NCC1(N2CCOCC2)CCCCC1
5) CC(=O)c1ccc(S(=O)(=O)NCCC(=O)N2CCN(c3ccccn3)CC2)cc1
6) COC(=O)Cc1ccc(NC(=S)NCc2ccco2)cc1
7) CC(C)N(C(=S)NCc1ccccc1)c1ccccc1
8) O=C(O)CC1S/C(=N/N=C/c2ccc(-c3ccc(Cl)c([N+](=O)[O-])c3)o2)NC1=O (stereo not given)
9) CC1(C)CC2(CC(c3ccccc3)c3ccc(O)cc3O2)NC(=S)N1 (stereo not given)
10) Cc1cc(C)cc(NC(=O)C(=O)NCCc2c[nH]c3ccccc23)c1

compound no.	1	2	3	4	5	6	7	8	9	10
B2AR ag	-8	3	-7	-8	3	-1	-4	-3	0	-2
Calb FLC	0	-11	17	/	/	-8	-8	-17	12	5
A1 inh	0.7	0.3	-0.4	-0.7	-0.5	-0.7	1.3	-0.3	-0.5	0.0
RanGTP-Impb inh	0.8	0.1	6.7	/	/	-1.0	5.9	4.4	0.4	-4.2
LANA-H2B inh	-2.2	-0.3	-2.1	-4.3	-3.7	0.0	5.6	2.1	-2.2	-5.4
UCH37 inh	4.9	-1.6	0.1	1.2	-1.5	2.2	0.6	/	2.3	2.0
T cruzi repl	0	2	-7	/	/	-11	1	-8	-4	-6
Beta cell apopt	7	-3	/	-4	2	3	-22	-1	-4	0

Compounds 1–2, reprinted for reference:
1) N#CC1=C(SCC(=O)NC2CCCCC2)NC(=O)CC1c1ccco1 (stereo not given)
2) COc1cccc(C(=O)C2CCCN(C(=O)c3ccc(C#CC(C)(C)O)cc3)C2)c1 (stereo not given)

compound no.	1	2
B2AR ag	-8	3
Calb FLC	0	-11
A1 inh	0.7	0.3
RanGTP-Impb inh	0.8	0.1
LANA-H2B inh	-2.2	-0.3
UCH37 inh	4.9	-1.6
T cruzi repl	0	2
Beta cell apopt	7	-3

(cont.)
11) Cc1ccc(C)c(NC(=O)CN(C)C(=O)c2sccc2C)c1
12) O=C(Cn1c2ccccc2c(=O)c2ccccc21)N/N=C/c1ccc(N2CCCC2)c([N+](=O)[O-])c1
13) Cc1ccc(/C=N/Nc2ccc(Cl)nn2)cc1
14) COc1cccc2c(=O)c(C(=O)O)c[nH]c12
15) Cc1ccc(C(=O)c2ccc(CC(=O)O)n2C)cc1
16) O=C(O)CCCN1C(=O)/C(=C\c2ccco2)SC1=S
17) CC(=O)c1ccc(NC(=S)Nc2cccc3cnccc23)cc1
18) COc1ccc(Br)cc1-c1nc(CCl)cs1
19) Cc1c(NC(=O)c2cccs2)cccc1C(=O)O
20) CC1(CCc2ccccc2)NC(=O)N(CC(=O)O)C1=O (stereo not given)

compound no.	11	12	13	14	15	16	17	18	19	20
B2AR ag	-9	17	-6	-2	5	10	8	3	-1	-2
Calb FLC	-2	4	8	-13	/	53	4	6	-5	-5
A1 inh	0.1	1.2	-1.1	-0.9	-1.0	/	0.3	0.7	-3.8	-0.3
RanGTP-Impb inh	0.6	28*	7.5	5.2	/	-4.2	1.2	-2.8	1.3	-1.1
LANA-H2B inh	3.0	+	-3.8	1.7	-0.8	/	-2.7	-1.1	-1.4	6.2
UCH37 inh	1.7	/	/	-68	2.5	5.3	3.1	2.5	-0.9	1.7
T cruzi repl	-10	-6	0	-7	/	26	-6	0	-6	-7
Beta cell apopt	-3	31	-3	-5	2	/	-9	0	-2	-11

21) O=C(NNC(=S)NC(=O)c1cccc([N+](=O)[O-])c1)c1ccc(O)cc1
22) O=C(C1CC1)N1CCN=C1SCc1cccc(F)c1
23) COc1ccc2oc(C(=O)OC(C)C(=O)N3CCC(C)CC3)c(C)c2c1 (stereo not given)
24) COc1cccc(OCc2cc(C(=O)NC3CCOCC3)no2)c1
25) COc1ccc(-c2c(=O)n(OCc3ccccc3[N+](=O)[O-])c3ccccc3[n+]2[O-])c(OC)c1
26) CCOc1ccccc1NC(=O)CN(c1ccc(OC)cc1)S(=O)(=O)c1c(C)[nH]c(=O)[nH]c1=O
27) CC1CCN(C(=O)C(=O)Nc2sc3c(c2C(=O)O)CC(C)(C)OC3)CC1
28) CCOc1cc(C(=O)Nc2ncn[nH]2)cc(OCC)c1OCC
29) COc1cc(/C=C(\C#N)c2nc3ccccc3s2)ccc1OCC(=O)Nc1ccccc1
30) CN=C(NC#N)SCC(=O)c1ccc(Cl)cc1Cl

compound no.	21	22	23	24	25	26	27	28	29	30
B2AR ag	2	-25	1	6	-16	-3	0	4	76*	-1
Calb FLC	30	/	/	-15	-2	2	4	11	/	29
A1 inh	0.0	0.1	-0.2	-0.8	0.3	0.4	-0.3	2.1	1.0	0.2
RanGTP-Impb inh	4.3	/	/	2.2	-2.8	1.3	0.0	0.4	/	6.8
LANA-H2B inh	-0.6	0.5	3.4	-1.5	1.9	0.1	0.1	0.2	-2.8	0.5
UCH37 inh	6.5	-0.2	-67	1.4	8.1	/	7.4	1.2	/	4.0
T cruzi repl	-11	/	/	-9	9	-26	-5	-1	/	-18
Beta cell apopt	/	-3	-1	-1	-3	0	-3	-5	1	-5

31) Oc1c(C(c2ccccc2)N2CCN(Cc3ccccc3)CC2)sc2ncnn12 (stereo not given)
32) C#CCNC(=O)C1=C[C@@H](c2ccc(Br)cc2)C[C@@H](OCc2ccc(CO)cc2)O1
33) Cc1ccc2nc(/C(C#N)=N/O)[nH]c2c1
34) Cc1cc(C)cc(-n2c(C)cc(C(=O)CSc3nnnn3C)c2C)c1
35) CC(C)(C)OC(=O)N1CCC(c2cc(=O)n3[nH]c(-c4ccc(Cl)cc4)cc3n2)CC1
36) COCCn1c(SCC(=O)N2CCc3ccccc3C2)nc2cc(Cl)ccc2c1=O
37) CCOc1ccc(C(=O)Nc2nnc(S(=O)(=O)Nc3ccccc3C)s2)cc1
38) CC1C(=O)N2CCCc3cc(S(=O)(=O)N4CCN(c5ccccc5F)CC4)cc1c32 (stereo not given)
39) COc1ccc2c(c1)c(C(=O)N/N=C/c1ccc(O)c(O)c1)c(C)n2C
40) Cn1c(=O)[nH]c2cc(Cl)cnc21

compound no.	31	32	33	34	35	36	37	38	39	40
B2AR ag	-3	-5	12	7	-3	1	-2	/	-12	-5
Calb FLC	-1	15	13	7	6	3	-2	27	-29	0
A1 inh	0.8	-0.7	-0.3	0.4	0.0	-0.3	-0.2	0.6	-0.2	1.0
RanGTP-Impb inh	1.8	1.5	13	-2.6	-0.4	0.5	-0.9	-1.3	-2.1	13
LANA-H2B inh	0.2	1.9	-2.2	3.4	2.1	1.2	9.6	0.7	0.3	5.3
UCH37 inh	2.5	-0.7	/	1.7	4.8	3.0	4.0	1.8	/	-1.4
T cruzi repl	-3	12	-12	3	5	12	1	18	-16	-25
Beta cell apopt	0	-10	1	3	6	-11	2	8	-3	0

41) O=c1cc(N2CCCCC2)[nH]c(=O)n1C1CCCCC1
42) COc1ccc(OC)c(Nc2nc(-c3c(C)nc4ncccn34)cs2)c1
43) C=C(C)c1cccc(C(C)(C)NC(=O)NCc2ccc(OC)cc2)c1
44) O=C1N=C(N2CCOCC2)S/C1=C\c1ccccc1OS(=O)(=O)c1ccccc1
45) Cc1ccccc1CCN(CC(=O)NCc1ccc(F)cc1)C(=O)c1csnn1
46) Cc1ccc(Nc2c([N+](=O)[O-])ccc3c2=NC2(CCCCC2)N=3)cc1
47) Cc1cc(C)c(S(=O)(=O)N(C)CC(=O)N2CCCCC2)c(C)c1
48) CC(=O)c1ccc(NC(=O)CSc2nnc(NC(=O)C3CC3)s2)cc1
49) Cc1cc(C(=O)OCC(=O)Nc2cc(C(F)(F)F)ccc2N2CCOCC2)c(C)o1
50) Cc1ccc(C(=O)N/C(=C\c2ccc(-c3cccc([N+](=O)[O-])c3)o2)C(=O)NCCCN(C)C)cc1

compound no.	41	42	43	44	45	46	47	48	49	50
B2AR ag	-16	15	-3	23	15	-3	-3	-8	-1	-4
Calb FLC	-7	-5	-27	-1	-2	15	-9	-1	-4	1
A1 inh	-0.1	0.2	-0.2	-0.8	0.5	-1.1	0.7	0.3	-0.5	0.3
RanGTP-Impb inh	12	-5.3	-0.6	3.1	1.0	-5.7	-0.9	4.1	-3.2	?
LANA-H2B inh	4.0	2.9	2.6	3.4	-1.0	-9.8	-3.6	1.6	-9.4	-5.1
UCH37 inh	1.3	5.3	2.5	6.8	2.0	3.4	0.9	0.5	1.4	15
T cruzi repl	-7	2	2	3	-5	8	9	-11	0	2
Beta cell apopt	-6	3	1	0	6	-3	-3	5	-13	7

Compound profiles, from the list above:
Profile of O=c1cc(N2CCCCC2)[nH]c(=O)n1C1CCCCC1 → B2AR ag = -16; Calb FLC = -7; A1 inh = -0.1; RanGTP-Impb inh = 12; LANA-H2B inh = 4.0; UCH37 inh = 1.3; T cruzi repl = -7; Beta cell apopt = -6
Profile of CC(=O)c1ccc(NC(=O)CSc2nnc(NC(=O)C3CC3)s2)cc1 → B2AR ag = -8; Calb FLC = -1; A1 inh = 0.3; RanGTP-Impb inh = 4.1; LANA-H2B inh = 1.6; UCH37 inh = 0.5; T cruzi repl = -11; Beta cell apopt = 5

Next entries follow:
51) S=c1[nH]nc(C2CCCCC2)n1/N=C/c1cccc(Cl)c1Cl
52) Cc1ccc(S(=O)(=O)N2CCCC(C(=O)NCC(C)C)C2)cc1 (stereo not given)
53) Cc1nnc(SCC2=C(C(=O)O)N3C(=O)C(NC(=O)Cc4ccccc4)C3SC2)s1 (stereo not given)
54) CN(C)S(=O)(=O)c1ccc(Cl)c(NC(=O)CN2CCc3ccccc3C2)c1
55) CCOc1ccc(-c2noc(CCCC(=O)NCC3CCCO3)n2)cc1OC (stereo not given)
56) Cc1cccn2c(=O)c3cc(C(=O)NC4CCS(=O)(=O)C4)sc3nc12 (stereo not given)
57) COc1cc(/C=C2/SC(N)=NC2=O)ccc1Oc1ccc([N+](=O)[O-])cc1[N+](=O)[O-]
58) O=c1c2ccccc2ncn1-c1ccc([N+](=O)[O-])cc1[N+](=O)[O-]
59) Nc1cccnc1Oc1ccc(F)cc1
60) Cc1cc(NC(=O)COc2c(C)cccc2C)no1

compound no.	51	52	53	54	55	56	57	58	59	60
B2AR ag	-1	4	7	1	1	-13	-5	2	12	0
Calb FLC	-6	-5	/	-9	8	7	0	/	-9	1
A1 inh	0.4	0.2	-0.4	1.9	-0.1	0.5	-0.8	-0.6	-0.4	0.7
RanGTP-Impb inh	-0.5	3.0	/	0.1	-1.0	4.6	3.0	4.3	-0.4	-4.1
LANA-H2B inh	0.9	0.7	/	4.0	0.7	1.4	2.1	-3.2	-1.8	/
UCH37 inh	/	3.8	4.3	4.1	2.3	-449	5.1	3.6	0.5	2.4
T cruzi repl	7	-2	/	20	-3	-17	-11	63*	-7	-10
Beta cell apopt	2	1	-5	8	1	-5	3	20	5	-1

Screens from PubChem.
